MT1-MMP act inh = inhibitors of human MT1-MMP activation; AID 651647; P50281; 0.061% of 360,000 active; GFP/RFP ratio change, % at 20 µM; HT1080 RFP-PRO-GFP cells, GFP/RFP ratio fluorescence, overnight; percent of plate control window, DMSO zero;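 active = GFP/RFP ratio change of at least 30% with cell ATP level not reduced by more than half and red fluorescence within 50% of control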; note: strong numbers were not always called active
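Material – HT1080 RFP-PRO-GFP cells · Control set – DMSO wells and RFP-L50D-GFP cells · Incubation – overnight cell settling, then overnight compound exposure, 37 °C, 5% CO2 · Compound dosing – single-point 20 µM compound, 1% DMSO · Read-out – GFP/RFP fluorescence ratio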
Env fusion inh = HIV envelope-mediated fusion inhibition; inhibition, % at 12.3 µM; AID 651610; 1.1% of 360,000 active; HeLa-JRFL Env/CEM21 cell fusion, luciferase;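 active = mean replicate inhibition score of at least 50 and every replicate individually at or above 50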;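 note: 0% = plate neutral controls and 100% = maraviroc near 300 nM; one replicate is shown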
CSC inhib = cancer stem cell inhibition; 1.1% of 300,000 active; inhibition, % at 7.5 µM; cancer stem cell-like cells viability, luminescence;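 active = mean at 75% or more and at least half the replicates too; tested in HMLE shEcad cells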;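 note: 0% = median of negative and 100% = median of positive control wells; the first replicate is given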
eIF4H inh = inhibitors of RNA binding by human eIF4H | eIF4H fluorescence polarization binding assay | 0.94% of 290,000 active | Q15056 | AID 2012 | inhibition, % at 35 µM;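 active = 50% or more with normal probe brightness, or confirmed in later tests; about a fifth of its hits are not listed in these tables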;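 note: calls also rest on retests at 20 µM and on dose response follow-up; 0% = protein and probe with vehicle and 100% = probe without protein; strong numbers were not always called active; many hits fall short of the cut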
UUG fidelity = alters start codon recognition fidelity in yeast | S. cerevisiae UUG-firefly luciferase reporter, luminescence/redox ratio | activity score, % at 18.7 µM | 0.13% of 350,000 active;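 active = replicate mean at a twofold rise or more, about +100% in these data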;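 note: firefly luciferase made from a UUG start codon reports start codon fidelity; reporter light over untreated wells divided by growth signal over untreated wells; some hits fall short of that in this replicate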
PABP FP inh = PABP-poly(A) binding inhibition | AID 2014 | PABP-poly(A) RNA binding, fluorescence polarization | P11940 | inhibition, % at 35 µM | 1% of 290,000 active;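 active = 50% or more with normal probe brightness, or confirmed in later tests; about a fifth of its hits are not listed in these tables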;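 note: calls also rest on retests at 20 µM and on dose response follow-up; controls were probe without protein and protein plus probe with vehicle; some compounds called inactive have numbers as strong as hits; many hits fall short of the cut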
Rce1 inh = yeast Ras-converting enzyme inhibition; Q03530; yeast membranes, quenched prenylated peptide cleavage fluorescence; calls only; 0.27% of 290,000 active;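 active = fall in fluorescence gain of 50% or more versus controls, with final raw signal at or below 3038400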;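 note: plate controls were neutral control wells for no effect and wells lacking membranes for full effect; tested at 10 µM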
Target sequence (Q03530 whole entry, looked up): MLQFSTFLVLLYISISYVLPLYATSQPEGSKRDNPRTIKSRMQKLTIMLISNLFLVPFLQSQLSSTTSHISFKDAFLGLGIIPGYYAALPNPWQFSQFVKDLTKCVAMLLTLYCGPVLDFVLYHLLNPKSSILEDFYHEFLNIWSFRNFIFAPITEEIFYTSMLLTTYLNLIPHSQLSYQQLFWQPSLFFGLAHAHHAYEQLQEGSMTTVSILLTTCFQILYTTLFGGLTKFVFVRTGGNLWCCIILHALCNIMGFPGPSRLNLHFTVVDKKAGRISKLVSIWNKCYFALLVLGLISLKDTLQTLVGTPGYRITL
eIF4H inh retest = recorded beside eIF4H inh, whose call it bears; inhibition, %; compound at 20 µM; confirmation average;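 mean of two retest wells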
PABP FP inh retest = further read-out of PABP FP inh, marked with its call; inhibition, %; compound at 20 µM; confirmation repeats;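 mean of two retest wells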
MT1-MMP act inh RFP = recorded beside MT1-MMP act inh, whose call it bears; RFP signal change, %; measured here: RFP expression control read;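 0 = vehicle wells; hits needed this value within 50% of zero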
An asterisk follows results filed as active; i = inactive; · = not tested or not shown.

SMILES | MT1-MMP act inh | MT1-MMP act inh RFP | Env fusion inh | CSC inhib | eIF4H inh | UUG fidelity | PABP FP inh | Rce1 inh | others
COc1cc(/C=C(\CC(=O)O)c2nc3ccccc3s2)ccc1OCC(=O)Nc1ccccc1F | -9.1 | -0.9 | -38.8 | · | · | -3.5 | · | ·
CC(=O)N1CCc2cc(S(=O)(=O)NC(C(=O)NC(C)c3ccccc3)C(C)C)ccc21 (stereo not given) | -1.2 | 3.8 | 7.3 | 3.1 | -6.6 | -6.3 | -4.7 | i
COc1ccccc1N1CCN(C2CCCN(C(=O)CCC(=O)N(C)C)C2)CC1 (stereo not given) | -1.7 | 3.7 | 13.9 | 16.2 | 102.0 | -7.8 | 0.9 | i | eIF4H inh retest=-5.9;PABP FP inh retest=9.9
CC(=O)N(C(C)=O)n1c(/C=C/c2ccc([N+](=O)[O-])cc2)nc2ccccc2c1=O | -4.8 | -4.0 | -2.3 | -14.8 | 5.2 | · | 6.1 | i
CCC(=O)N1CCc2cc(Br)cc(S(=O)(=O)NCCCN(CC)Cc3ccccc3)c21 | 0.9 | 3.5 | 12.0 | -22.5 | -8.2 | -13.7 | -0.5 | i
COC(=O)CCCCCCCCCC[N+]1(C)CCCCC1 | -1.4 | 2.1 | -15.1 | -7.0 | -6.3 | · | -3.6 | i
CC1(c2ccc3c(c2)OCCO3)NC(=O)N(CC(=O)c2ccc[nH]2)C1=O (stereo not given) | -0.1 | 7.2 | 7.8 | -3.5 | · | -12.1 | · | ·
Cc1cnc([N+](=O)[O-])n1CCOC(=O)NC(=O)c1ccccc1Cl | 3.6 | 4.9 | 9.1 | -14.1 | 5.6 | -14.3 | -1.0 | i
CC(C)c1nn2c(N)c(/C=C3\C=Nc4ccccc43)c(=O)nc2s1 | 0.3 | -3.3 | 4.8 | -2.3 | 13.4 | -0.5 | -9.7 | i
O=C(CCN1C(=O)C2C3CCC(C3)C2C1=O)OCC(=O)c1ccc(Cl)cc1 (stereo not given) | 2.3 | 3.4 | -19.6 | -30.8 | -3.2 | -11.3 | -0.9 | i
COc1cccc(C(=O)NCCS(=O)(=O)NCc2cccnc2)c1 | 0.0 | 3.3 | -12.8 | 2.4 | · | -16.6 | · | i
Cc1cccc(/C(N)=N/OC(=O)c2ccc(Br)o2)c1 | 1.7 | 4.9 | -16.4 | -13.7 | 4.6 | · | 1.0 | i

By substructure: the entries above containing bromine
SMILES | MT1-MMP act inh | MT1-MMP act inh RFP | Env fusion inh | CSC inhib | eIF4H inh | UUG fidelity | PABP FP inh | Rce1 inh | others
CCC(=O)N1CCc2cc(Br)cc(S(=O)(=O)NCCCN(CC)Cc3ccccc3)c21 | 0.9 | 3.5 | 12.0 | -22.5 | -8.2 | -13.7 | -0.5 | i
Cc1cccc(/C(N)=N/OC(=O)c2ccc(Br)o2)c1 | 1.7 | 4.9 | -16.4 | -13.7 | 4.6 | · | 1.0 | i

(further entries)
SMILES | MT1-MMP act inh | MT1-MMP act inh RFP | Env fusion inh | CSC inhib | eIF4H inh | UUG fidelity | PABP FP inh | Rce1 inh | others
Cc1cc(OCC(=O)NNC(=S)NC(=O)c2ccc(Br)o2)ccc1Cl | 3.2 | 3.4 | 2.8 | -1.5 | 4.2 | -4.8 | -5.5 | i
CC(=O)Nc1ccc(S(=O)(=O)Nc2cccc(-n3c(C)nc4ccccc4c3=O)c2)cc1 | 4.3 | 1.0 | 2.2 | -17.1 | · | 7.9 | · | i
CC1(C)CC(=O)c2cc(NC(=O)c3ccccc3)c(=O)oc2C1 | 1.6 | -0.3 | 14.6 | 0.5 | -0.6 | · | 10.7 | i
C/C(=N\NC(=O)COc1ccc(C(C)(C)C)cc1)c1ccc2c(c1)OCCO2 | 6.0 | 7.0 | · | 8.0 | -4.0 | · | -6.2 | i
C/C(=N/NC(=O)CNC(=O)c1cccc(F)c1)c1ccc2c(c1)CCCC2 | 2.1 | 0.5 | -7.0 | -4.3 | 3.6 | 5.2 | 7.7 | i
CCOc1ccccc1NC(=O)CCS(=O)(=O)c1cccc2nonc12 | 1.8 | -0.2 | -184.3 | -5.6 | -3.0 | -12.1 | 4.3 | ·
CC(=O)c1cccc(NC(=O)C(=O)c2cn(CC(=O)N3CCCCC3)c3ccccc23)c1 | 3.3 | -0.9 | 0.0 | -0.9 | -9.0 | · | 6.9 | i
Cc1cc(F)ccc1S(=O)(=O)N1CCCOC1CNC(=O)C(=O)NCCc1ccccc1 (stereo not given) | 0.2 | -3.6 | -4.4 | 4.3 | -6.4 | 15.0 | -0.2 | i
CCOC(=O)c1[nH]ncc1CN1CCCC(C(=O)c2ccc(C(C)(C)C)cc2)C1 (stereo not given) | 2.9 | 3.5 | -8.7 | -1.1 | 3.9 | · | -1.0 | i
Cc1cccc(NC(=O)C2CCN(S(=O)(=O)c3c(C)c(C)cc(C)c3C)CC2)n1 | -6.7 | -11.9 | 28.7 | -1.5 | · | · | · | i
COC(=O)c1ccccc1NC(=O)N1CSC[C@H]1C(=O)OC | -1.1 | 0.2 | · | -4.3 | -6.2 | -4.4 | 9.9 | i
COc1ccccc1CCC(=O)NCCCn1ccc2ccccc21 | -1.7 | 1.2 | -6.1 | 6.3 | 3.9 | -19.6 | 4.3 | i

Sorted by molecular weight (ascending): some entries from above
SMILES | MT1-MMP act inh | MT1-MMP act inh RFP | Env fusion inh | CSC inhib | eIF4H inh | UUG fidelity | PABP FP inh | Rce1 inh | others
COC(=O)c1ccccc1NC(=O)N1CSC[C@H]1C(=O)OC | -1.1 | 0.2 | · | -4.3 | -6.2 | -4.4 | 9.9 | i
COc1ccccc1CCC(=O)NCCCn1ccc2ccccc21 | -1.7 | 1.2 | -6.1 | 6.3 | 3.9 | -19.6 | 4.3 | i
C/C(=N/NC(=O)CNC(=O)c1cccc(F)c1)c1ccc2c(c1)CCCC2 | 2.1 | 0.5 | -7.0 | -4.3 | 3.6 | 5.2 | 7.7 | i
CC(=O)Nc1ccc(S(=O)(=O)Nc2cccc(-n3c(C)nc4ccccc4c3=O)c2)cc1 | 4.3 | 1.0 | 2.2 | -17.1 | · | 7.9 | · | i

Continued.
SMILES | MT1-MMP act inh | MT1-MMP act inh RFP | Env fusion inh | CSC inhib | eIF4H inh | UUG fidelity | PABP FP inh | Rce1 inh | others
CC(=O)Nc1cc(C(C)C)c(O)c(C(C)C)c1 | 2.4 | 2.1 | · | -6.7 | 7.3 | 56.0 | 7.0 | i
Cc1nc2sc(C(c3cccs3)N3CCC4(CC3)OCCO4)c(O)n2n1 (stereo not given) | 1.8 | 2.4 | · | -12.8 | -6.9 | -24.3 | -6.3 | i
OCC1(Cc2ccccc2)CCN(Cc2cnc(-c3cccc4ccccc34)nc2)CC1 | -1.4 | -0.3 | -74.6 | -8.0 | 0.3 | · | 0.6 | ·
Cc1cc(-c2nn(-c3ccccc3F)cc2CN(C)CC(O)CO)c(C)s1 (stereo not given) | -3.5 | 1.8 | 12.2 | 8.9 | -5.2 | · | -13.0 | i
Clc1cccc(CSc2ccc(-c3cccnc3)nn2)c1 | 2.2 | -3.9 | -43.3 | 15.3 | -3.3 | · | 1.0 | i
CN(C)S(=O)(=O)c1cccc(NC(=O)CSc2nncn2C)c1 | 3.4 | 3.2 | 4.8 | -13.8 | 4.8 | · | 8.7 | i
CC(C)CCNC(=O)c1ccc2c(c1)N(Cc1ccccc1)C(=O)CS2=O (stereo not given) | -1.9 | -0.6 | -17.8 | -4.0 | 8.7 | 11.4 | -10.6 | i
O=C1N(Cc2cccnc2)C[C@@H]2C[C@@H](c3cccc(OC4CCCC4)c3)N3CCC[C@@]123 | -5.6 | -1.4 | 6.2 | 4.2 | -11.8 | · | -8.0 | i
CCC1CCCCN1C(=O)c1c(-c2ccccc2)noc1C (stereo not given) | 0.3 | 0.3 | · | 6.8 | -2.8 | 3.8 | -14.2 | i
Cc1ccc(C(=O)O)cc1-c1ccc(/C=C2\SC(=O)N(CC(=O)Nc3ccc4c(c3)OCO4)C2=O)o1 | 0.7 | 2.7 | 5.4 | -0.1 | 59.7* | -6.4 | 62.5* | i
Cc1ccc2nc(NC(=S)NC(=O)c3cccs3)sc2c1 | -2.3 | 2.1 | · | -9.9 | 11.0 | -27.8 | 21.3 | i
CN(C(=O)c1ccccn1)c1nnc(-c2cccnc2)s1 | -5.0 | 1.2 | · | 11.9 | 5.9 | 9.5 | 2.1 | ·
CC(C)(C)n1nnnc1C(c1cccnc1)N1CCN(C2CCCCC2)CC1 (stereo not given) | -2.8 | 4.3 | 65.0* | 2.8 | -5.4 | -13.0 | -3.8 | i
Cc1ccc2nc(SCC(=O)Nc3ccc4c(c3)OCO4)nc(=O)n2c1 | 7.7 | 2.9 | · | -2.2 | · | · | · | i
Cc1ccc(NC(=O)CNC(=O)c2cccs2)cc1S(=O)(=O)Nc1ccc(Cl)cc1 | -1.3 | -11.6 | · | 13.9 | -11.1 | 1.8 | -4.5 | i
COc1ccc(C(=O)Nc2cc(C)nn2-c2cccc(F)c2)cc1OC | 1.1 | 0.2 | 12.3 | -11.0 | 0.9 | -19.9 | 2.5 | i
Oc1ccccc1N1CCN(c2ncnc3scc(-c4ccccc4)c23)CC1 | -6.5 | -9.5 | 37.1 | 25.8 | -7.3 | -1.4 | 5.2 | i
Cc1cc(C(=O)NNS(=O)(=O)c2cccc(Cl)c2)nn1C(C)(C)C | -0.4 | 5.0 | 9.5 | 9.9 | -9.2 | · | 3.6 | i
CCCCN1C(=O)C2C(c3ccc(OC)cc3O)NC(CC(C)C)(C(=O)O)C2C1=O (stereo not given) | 2.5 | 7.4 | -0.2 | -3.5 | 5.7 | -5.8 | -7.3 | i
COCCn1c(C)cc(/C=N/NC(=O)c2cccnc2)c1C | 6.3 | 2.7 | -3.9 | -11.9 | -5.5 | · | -12.4 | i
O=C(NCCc1ccccc1)C(=O)NCCC1CCCCN1S(=O)(=O)c1ccccc1 (stereo not given) | 0.6 | -5.8 | 17.8 | -13.1 | · | -3.7 | · | i
Cc1ccc(-c2c(C)sc(=NC(=O)c3ccco3)n2C)cc1 | -0.1 | -2.0 | · | 5.3 | -11.6 | · | -5.0 | i
COc1ccc(-c2noc(CN3CCN(C(=O)c4cccs4)CC3)n2)c(OC)c1OC | 2.8 | 2.9 | -9.1 | 2.9 | -12.7 | -12.1 | -0.5 | i
CCCc1cc(=O)[nH]c(SCC(=O)c2c(N)n(C3CC3)c(=O)[nH]c2=O)n1 | -7.8 | 7.7 | 8.8 | · | · | -13.5 | · | ·
Cc1noc(C)c1NC(=O)N(C)C[C@@H]1OCc2ccccc2-c2c(n(C)c3ccccc23)C(=O)N([C@H](C)CO)C[C@H]1C | -2.0 | 1.3 | -95.8 | · | · | 25.0 | · | ·
O=C(c1cc(COc2ccc(F)c(F)c2)on1)N1CCSCC1 | -0.9 | 3.7 | -43.3 | -7.8 | 0.9 | -6.8 | 25.3 | i
CCCCN1C(=O)C(C#N)CC2=C1CC(C)(C)CC2=O (stereo not given) | 0.9 | 2.5 | 7.5 | · | · | -13.8 | · | ·
CCc1nccn1CCC(=O)NC1CC(C)(C)Cc2c1cnn2-c1ccc(OC)cc1 (stereo not given) | -0.4 | 1.6 | -7.6 | 4.6 | -17.0 | -8.1 | -0.7 | i
CCOC(=O)C1=C(C)Nc2ccccc2N=C1NC(=O)C(c1ccccc1)c1ccccc1 | -6.5 | -3.6 | 14.8 | 16.3 | -10.7 | 8.2 | -14.5 | ·
COc1cnn(-c2ccc(C)cc2)c(=O)c1Cl | 0.5 | 4.2 | -9.9 | -9.4 | -8.4 | · | 6.5 | i
Cc1ccc(C(=O)OCC(=O)NC2CCCCC2)cc1S(=O)(=O)N1CCCCC1 | 3.5 | -5.8 | -8.8 | · | · | -13.9 | · | ·
COc1ccccc1-c1ccc(/C=C2/C=C(CC(C)C)OC2=O)o1 | -4.6 | 4.8 | · | 14.5 | 10.0 | 1.3 | -0.6 | i

A portion of the library (hit frequency here may not be typical).
